# ClpP mod – qHTS Assay for Activators of ClpP. purified B. subtilis ClpP, FRET peptide cleavage, 20 min. Potency, µM (series often up to 57.5 µM), inactives show at the highest dose activity change, negative = active. 340,000 compounds, 1.9% hits; active = well fitted falling curve with a large enough effect; inconclusive = small, poorly fitted or top-dose-only effect; inactive = no such curve, though single readings can be large or run the other way; further: the source files actives as falling curves though it sought activators and does not explain the sign; nearly all actives have a fitted effect of over 65% in size; many hits overshoot -100%
# Target sequence (P80244 whole entry, looked up): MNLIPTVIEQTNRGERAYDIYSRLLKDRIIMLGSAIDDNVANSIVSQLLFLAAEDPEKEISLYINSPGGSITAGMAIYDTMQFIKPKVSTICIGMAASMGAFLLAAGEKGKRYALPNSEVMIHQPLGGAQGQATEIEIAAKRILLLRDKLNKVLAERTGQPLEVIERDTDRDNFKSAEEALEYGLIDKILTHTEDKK
#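 Purified B. subtilis ClpP, 10 microg/mL final in Tris/HCl pH8 with KCl, BSA, glycerol and Tween-20, cleaved an Abz/nitrotyrosine-quenched decapeptide. Fluorescence (ex 320, em 430) was read at 0 and 20 min at room temperature. Delta was normalized to 5.8 microM ADEP and DMSO/no-enzyme controls.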
# The depositor's hits bear a star; u = inconclusive. Potency means the concentration at half of the fitted maximal effect. A portion of the library, so the mix of outcomes need not match the whole.
SMILES,ClpP mod
COc1ccc(NC(=O)c2cc3c(=O)n(C)c4ccccc4c3s2)cc1Cl,-5.6%
Cc1ccc(OC(=O)CSc2nnc(-c3ccc4c(c3)OCO4)o2)c(C)c1,-23.2%
CCOC(=O)c1cc(-c2ccccc2)n(CCC(=O)Nc2cc(C)cc(C)c2)c1C,-12.2%
CCN(C(=O)CN(C)S(=O)(=O)c1ccc2c(c1)c(=O)n(C)c(=O)n2C)c1ccc(OC)cc1,-0.3%
Cc1nc2c(c(C)c1CCC(=O)NCc1ccc(F)cc1)c(=O)n(C)c(=O)n2C,-13.6%
O=C(c1ccc(F)cc1)N1CCC(c2nc3ccccc3o2)CC1,0.0%
Cc1ccc(NC(=O)CN2c3ccccc3S(=O)(=O)c3ccccc32)cc1F,-24.2%
Cc1ccc(C2CC(=O)Nc3c2c(C)nn3-c2nc(C)cc(C)n2)c(C)c1 (stereo unspecified),0.2%
COc1ccc(N2CCN(C(=O)c3cn(CC(C)C)c(=O)c4c3c3ccccc3n4C)CC2)cc1,-23.2%
COc1ccc2nc(N(Cc3cccnc3)C(=O)c3ccco3)sc2c1,2.0%
COc1ccc(N2CC(NC(=O)C3CCCC3)CC2=O)cc1 (stereo unspecified),0.6%
Cc1ccccc1OCC(=O)Nc1ccc2nc(SCC(=O)N3CCOCC3)sc2c1,-0.8%
Cc1cccc(NC(c2cccc(F)c2)c2ccc3ccc(C)nc3c2O)n1 (stereo unspecified),u
Cc1ccc(-c2cc3c(n2-c2ccc(C)cc2)CC(C)(C)CC3=O)cc1,-3.1%
COc1ccc(CCNC(=O)CCc2c(C)c3cc4c(C)c(C)oc4cc3oc2=O)cc1,u
Cc1ccc(NC(=O)C(Cc2ccccc2)N2Cc3ccccc3C2=O)cc1Cl (stereo unspecified),0.1%
COc1ccc(CC(=O)Nc2ccc3nc(N4CCCCC4)cc(C)c3c2)cc1,4.1%
Cc1ccc2occ(CC(=O)Nc3ccc(Cl)c(C(F)(F)F)c3)c2c1,-0.1%
COc1ccc(Cl)cc1NC(=O)c1noc2c1CCc1ccccc1-2,-0.8%
Cc1c(Cl)cccc1NC(=O)CN1C(=O)CSc2ccc(S(=O)(=O)N3CCCC3)cc21,-2.3%
CCC(=O)N1c2ccc(S(=O)(=O)N3CCN(c4ccccc4)CC3)cc2CC1C (stereo unspecified),1.7%
CN(C)c1ccc(CCc2ccnc3ccccc23)cc1,-2.3%
Cc1nc2ncnn2c(C)c1CCC(=O)N1CCN(c2cccc(Cl)c2)CC1,-3.7%
CCCN(CCC)CCNC(=O)Cn1cnc2sc(C)c(S(=O)(=O)N3CCC(C)CC3)c2c1=O,-0.7%
CCN(CCCNC(=O)c1cc2c(=O)n(C)c3ccccc3c2s1)c1ccccc1,-10.7%
Cc1ccc(S(=O)(=O)N2CCN(c3nc(-c4cccs4)nc4ccccc34)CC2)c(C)c1,u
CCC1=Nc2cc(C(=O)NCCCOC)ccc2Sc2ccc(Br)cc21,-0.7%
Cc1ccc(N2C(=O)c3oc4cc(C)c(C)cc4c(=O)c3C2c2cccc(O)c2)nc1 (stereo unspecified),-4.5%
Cc1ccc(C2C=C(c3ccccc3)Nc3nc(NS(=O)(=O)c4ccc(C)cc4)nn32)cc1 (stereo unspecified),-6.2%
Cc1ccc2nc(N(Cc3cccnc3)C(=O)c3ccco3)sc2c1,-7.9%
COC(=O)c1ccccc1NC(=O)c1nc(-c2ccc(Cl)cc2)n2c1CCCCC2,-10.8%
COc1ccc2c(c1)CC(C(=O)NCc1ccc(F)cc1)CO2 (stereo unspecified),-1.8%
CCCCCOc1ccc(NC(=O)Cn2c(-c3cncs3)nc3ccccc32)cc1,-1.3%
Cc1ccc(C(=O)Nc2sc3c(c2C(=O)NCc2ccco2)CCC(C(C)(C)C)C3)cc1 (stereo unspecified),-3.9%
COc1ccc(CNC(=O)c2cc3c(=O)n(Cc4ccco4)ccc3nc2C)c(OC)c1,u
CCC(C(=O)Nc1cccc(Cl)c1C)n1nc(C)c2sc3ccccc3c2c1=O (stereo unspecified),-5.2%
CCc1nn2c(=O)cc(COC(=O)C3CCCCC3)nc2s1,-3.3%
CCOC(=O)c1cccc(NC(=O)CSc2ncc3c(n2)-c2ccc(Cl)cc2N(Cc2ccccc2)S3(=O)=O)c1,-3.2%
O=C(NCC(c1cccnc1)N1CCc2ccccc21)c1cccc(F)c1 (stereo unspecified),2.2%
COc1ccc(NC(=O)c2sc3nc4c(cc3c2N)CCCCCC4)cc1OC,6.6%

# The last 2 records of the section before are carried over, then new ones follow.
SMILES,ClpP mod
O=C(NCC(c1cccnc1)N1CCc2ccccc21)c1cccc(F)c1 (stereo unspecified),2.2%
COc1ccc(NC(=O)c2sc3nc4c(cc3c2N)CCCCCC4)cc1OC,6.6%
O=c1c2oc3ccccc3c2n(Cc2cccc(F)c2)c(=O)n1Cc1ccco1,-15.0%
COc1ccccc1N1CCN(c2cc(C)nc3nncn23)CC1,-1.9%
O=C(Nc1ccc(F)cc1F)N1CCN(c2ccc(Cl)c(Cl)c2)CC1,-1.2%
Cc1ccc(C(=O)Nc2ccc3oc(-c4ccc(C(C)(C)C)cc4)nc3c2)cc1,-3.8%
CCOc1ccccc1CNC(=O)c1cnc2c(-c3ccc(OCC)c(OCC)c3)c(C)nn2c1C,-4.3%
COc1ccc2c(c1OC)C(=O)OC2c1ccc(O)cc1 (stereo unspecified),-7.3%
O=C1[C@H](Cc2ccccc2)NC/C=C\C[C@H](c2ccco2)N1Cc1ccccc1,-2.9%
Cc1ccc(NC(=O)c2ccc(Br)cc2)c(C(=O)c2ccccc2)c1,1.0%
Cc1cccc(OCC(=O)Nc2c(C(=O)Nc3ccc(F)cc3)oc3ccccc23)c1,-0.1%
Cc1ccc(NC(=O)Cn2c(=O)n(Cc3nc(-c4ccccc4)no3)c(=O)c3cc4c(cc32)OCO4)cc1C,-8.6%
CC(C)c1ccc(NC(=O)CSC2=Nc3ccccc3C3=NC(CCC(=O)NCc4ccc(F)cc4)C(=O)N23)cc1 (stereo unspecified),-0.4%
COc1ccc(CCNC(=O)c2ccc3nc(Cc4ccccc4)oc3c2)cc1OC,0.2%
CCn1cc(S(=O)(=O)c2ccccc2)c(=O)c2cc(C)ccc21,-9.8%
COc1ccccc1C(=O)Nc1cc(-c2cccc(Br)c2)nn1-c1ccccc1,3.98µM*
Cc1cccc(NC(=O)CSc2nc3c([nH]c4ccccc43)c(=O)n2-c2cc(C)cc(C)c2)c1,9.7%
CCn1cc(C(=O)N2CCN(c3cccc(Cl)c3)CC2)c(=O)c2cc(S(=O)(=O)N3CCCCC3)ccc21,-1.7%
COc1ccc(CSc2nc3ccncc3n2CC(=O)Nc2cc(C)cc(C)c2)cc1,u
COC(=O)c1cc(S(=O)(=O)N2CCN(c3ccc(OC)cc3)CC2)c[nH]1,-0.8%
COc1ccc(C(=O)Nc2ccc(N3CCN(c4ccccc4)CC3)c(C(=O)O)c2)cc1,-2.8%
O=C(OCc1cc(=O)n2nc(-c3cccs3)sc2n1)c1cccc(F)c1,-5.0%
O=C(CCSCc1cccc(F)c1)NCc1ccccc1,1.3%
Cc1ccc(CSc2nc3ccc(NC(=O)C(C)C)cc3s2)cc1,-2.9%
CCOC(=O)c1cc(-c2ccccc2)n(CCC(=O)Nc2cc(OCC)ccc2OCC)c1C,-2.2%
O=c1oc2c(CN3CCN(CCO)CC3)c(O)ccc2cc1-c1ccccc1,4.0%
COc1cc(NC(=O)NCCn2nnc3cc(S(=O)(=O)N(C)C)ccc32)cc(OC)c1OC,0.0%
Cc1cccc(N2CCN(C(=O)Cn3c(=O)c4cccn4c4ccc(F)cc43)CC2C)c1 (stereo unspecified),-2.1%
CCOC(=O)N1CCC(NC(=O)c2ccc3c(c2)N(Cc2cc(C)ccc2C)C(=O)c2ccccc2S3(=O)=O)CC1,0.4%
CN(C)CCNC(=O)c1ccc(-n2c(-c3ccccc3)cc3c2CCCCC3)cc1,-0.7%
COc1ccc(CCNC(=O)CSc2nnnn2-c2cccc(C(C)=O)c2)cc1OC,-1.7%
O=C(NCCOCCn1c(=O)oc2ccccc21)Nc1ccc(Cl)cc1,1.6%
CC(C)c1ccc(S(=O)(=O)c2cn(CC(=O)Nc3ccc(F)cc3)c3ccccc3c2=O)cc1,-0.7%
Cc1ccc(Cl)cc1N1CCN(S(=O)(=O)c2ccc3oc(=O)c4ncn(C)c4c3c2)CC1,-0.1%
COCCCNC(=O)c1ccc(CSc2nc3cccnc3n2Cc2ccc(OC)cc2)cc1,-24.6%
CCOc1cccc2sc(N(CCN(CC)CC)C(=O)c3ccco3)nc12,u
CCOC(=O)c1c(C)oc2nc(C)nc(NCCCN3CCN(c4cc(C)ccc4C)CC3)c12,1.4%
CC1CCc2noc(NC(=O)c3ccc([N+](=O)[O-])cc3)c2C1 (stereo unspecified),1.5%
CN(C)S(=O)(=O)c1ccc2c(c1)N(CC(=O)N1CCN(c3cccc(Cl)c3)CC1)CCS2,-36.4%
COc1ccccc1-n1c(=O)c2c3c(sc2n(C)c1=O)CN(C(C)=O)CC3,2.0%
COC(=O)c1sc2cccc(F)c2c1S(=O)(=O)Nc1cc(C)c(Cl)cc1OC,1.1%
Cc1ccc(C(=O)Nc2ccc(F)cc2)cc1S(=O)(=O)N1CCCCCC1,-9.0%
CCS(=O)(=O)N1CCc2cc(C(=O)NCCc3ccc(OC)cc3)ccc21,-2.4%
O=C(CSc1nc2c([nH]c3ccccc32)c(=O)n1-c1ccc(Cl)cc1)N1CCCC1,-4.2%
COc1ccccc1NC(C)C(=O)c1c(C)[nH]c2ccccc12 (stereo unspecified),0.0%
O=C(NC1CCCC1)c1ccc2c(=O)n(Cc3ccccc3)c(SCc3cccc([N+](=O)[O-])c3)nc2c1,-0.4%
Cc1cc(C)cc(Nc2nc3cc(Cl)c(Cl)cc3nc2-n2nc(C)cc2C)c1,-1.4%
CCc1ccccc1NC(=O)CSc1nc2n[nH]c(C)c2c(=N)n1-c1cccc(C)c1,17.6%
CCCCC(=O)Nc1ccc(C(=O)OCc2cc(=O)n3nc(C4CC4)sc3n2)cc1,-2.6%
CCN(CC)c1ccc2cc(-c3nc(-c4cc(OC)c(OC)c(OC)c4)no3)c(=O)oc2c1,-26.0%
Cc1cccc(OCC(=O)Nc2ccc(Cl)c(-c3nc4ncccc4o3)c2)c1C,u
CCOc1c(Br)cc(C2CC(=O)Nc3cc4c(cc32)OCO4)cc1OC (stereo unspecified),3.7%
# Further structures.
SMILES,ClpP mod
Fc1ccc(-c2nc(Nc3ccc(F)c(Cl)c3)nc3c2COc2ccccc2-3)cc1,-13.7%
O=C(CSc1nc2c(c(=O)[nH]1)CCC2)Nc1ccccc1F,-0.7%
CCSc1nnc2c(n1)OC(c1ccc(C)cc1)N(C(C)=O)c1ccccc1-2 (stereo unspecified),0.2%
CCCc1cc(C(=O)Nc2c(C)nn(Cc3ccc(C)cc3)c2C)no1,0.6%
Cc1ccc(NC(=O)CSc2nc3c(sc4ccccc43)c(=O)n2CCCC(=O)NC2CCCC2)cc1C,-17.7%
Cc1cc(OCC(=O)Nc2c(C(=O)c3ccccc3)oc3ccccc23)cc(C)c1Cl,-3.3%
O=S(=O)(NCc1ccc(Cl)cc1)c1ccc(N2CCCCS2(=O)=O)cc1,2.4%
COc1ccccc1CNC(=O)CCC1N=C2c3ccccc3N=C(SCc3ccc(C)cc3)N2C1=O (stereo unspecified),u
CC(=O)N1CCCc2cc(S(=O)(=O)N3CCCC(C(=O)N4CCN(c5ccccc5F)CC4)C3)ccc21 (stereo unspecified),-1.3%
COc1cc(NC(=O)C(CC(C)C)NS(=O)(=O)c2ccc3c(c2)oc(=O)n3C)c(C(=O)O)cc1OC (stereo unspecified),-0.2%

# Entries above that contain a furan ring, fused or not:
SMILES,ClpP mod
COc1ccc2nc(N(Cc3cccnc3)C(=O)c3ccco3)sc2c1,2.0%
COc1ccc(CCNC(=O)CCc2c(C)c3cc4c(C)c(C)oc4cc3oc2=O)cc1,u
Cc1ccc2occ(CC(=O)Nc3ccc(Cl)c(C(F)(F)F)c3)c2c1,-0.1%
Cc1ccc2nc(N(Cc3cccnc3)C(=O)c3ccco3)sc2c1,-7.9%
Cc1ccc(C(=O)Nc2sc3c(c2C(=O)NCc2ccco2)CCC(C(C)(C)C)C3)cc1 (stereo unspecified),-3.9%
COc1ccc(CNC(=O)c2cc3c(=O)n(Cc4ccco4)ccc3nc2C)c(OC)c1,u
O=c1c2oc3ccccc3c2n(Cc2cccc(F)c2)c(=O)n1Cc1ccco1,-15.0%
O=C1[C@H](Cc2ccccc2)NC/C=C\C[C@H](c2ccco2)N1Cc1ccccc1,-2.9%
Cc1cccc(OCC(=O)Nc2c(C(=O)Nc3ccc(F)cc3)oc3ccccc23)c1,-0.1%
CCOc1cccc2sc(N(CCN(CC)CC)C(=O)c3ccco3)nc12,u
CCOC(=O)c1c(C)oc2nc(C)nc(NCCCN3CCN(c4cc(C)ccc4C)CC3)c12,1.4%
Cc1cc(OCC(=O)Nc2c(C(=O)c3ccccc3)oc3ccccc23)cc(C)c1Cl,-3.3%

# Source: PubChem BioAssay
